AF4-AF9 inh: MLL-AF4/AF9 protein interaction inhibition | AlphaScreen, biotin-AF4 peptide binding to FLAG-AF9 | P42568 | 0.47% of 350,000 active | inhibition, % at 10 µM | AID 651704;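 active = every replicate reaching a set inhibition limit, whatever the replicate mean, cut at about 25% in these data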;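 also: 0% = plate neutral control median and 100% = total signal loss; the record names both 10 and 1 µM as test concentration; the first replicate is given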
Target sequence (P42568 whole entry, looked up): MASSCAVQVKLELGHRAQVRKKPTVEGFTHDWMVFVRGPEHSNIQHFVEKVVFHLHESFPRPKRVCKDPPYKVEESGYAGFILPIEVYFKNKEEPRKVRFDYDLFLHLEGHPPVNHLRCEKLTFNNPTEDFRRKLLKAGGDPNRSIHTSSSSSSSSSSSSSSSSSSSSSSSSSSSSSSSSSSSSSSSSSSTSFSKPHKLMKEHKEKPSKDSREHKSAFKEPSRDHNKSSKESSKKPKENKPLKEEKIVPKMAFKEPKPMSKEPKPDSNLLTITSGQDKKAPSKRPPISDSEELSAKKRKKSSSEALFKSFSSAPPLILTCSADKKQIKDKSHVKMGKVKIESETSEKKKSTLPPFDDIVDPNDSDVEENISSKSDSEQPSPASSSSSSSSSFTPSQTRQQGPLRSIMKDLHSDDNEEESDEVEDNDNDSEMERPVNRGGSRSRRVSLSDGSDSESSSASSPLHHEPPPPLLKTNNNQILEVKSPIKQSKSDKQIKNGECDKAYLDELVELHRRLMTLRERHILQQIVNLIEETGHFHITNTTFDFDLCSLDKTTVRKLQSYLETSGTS
Ecoli rRNA inh: inhibits bacterial ribosomal RNA function over humanized ribosomes | E. coli WT GFP vs humanized-ribosome RFP mutants, fluorescence, 24 h; hits give low values; DMSO median 0, no signal -100 | GFP signal change (wild-type ribosome), % (test concentration not listed) | 1.6% of 350,000 active | AID 720706;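 active = significant combined selectivity score with lowered wild-type GFP, culture density cut under 30%, mutant RFP and density less affected; inactive = any of these conditions unmet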; also: one replicate is shown; some compounds called inactive have numbers as strong as hits
Ecoli rRNA inh OD600: second read-out of Ecoli rRNA inh, no call of its own (marks repeat the call); OD600 change, %; measured here: OD600 growth;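 optical density of the mix in the first replicate; 0 = DMSO median and -100 = no signal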
Ecoli rRNA inh RFP: further read-out of Ecoli rRNA inh, marked with its call; RFP signal change, %; measured here: RFP humanized mutant strains;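 first replicate; 0 = DMSO median and -100 = no signal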
Starred values were filed as active, the others as inactive; & = joins results of further samples. Only part of the results is shown (hit frequency here may not be typical).

no.	compound	AF4-AF9 inh	Ecoli rRNA inh	Ecoli rRNA inh OD600	Ecoli rRNA inh RFP
1	C[C@H]1CN([C@@H](C)CO)C(=O)c2cc(C#CCN(C)C)cnc2O[C@@H]1CN(C)Cc1ccccc1F	7.8	2.9	12.5	2.3
2	CCOC(=O)Cc1c(-c2cccc(Cl)c2)nc2c3ccccc3ccn12	-3.4	-8.1	-7.3	34.5
3	C[C@@H]1CN([C@H](C)CO)C(=O)Cc2cc(NC(=O)C3CC3)ccc2O[C@@H]1CN(C)Cc1ccncc1	-0.6	0.3	2.7	-0.8
4	CCCNC(=O)[C@@H]1N[C@@H]2c3ccc(-c4cccc(F)c4)c(=O)n3C[C@@H]2[C@H]1CO	0.6	0.2	3.6	-3.1
5	CCOC(=O)c1c(C)[nH]c(C(=O)COC(=O)C2CC2)c1C	-1.7	8.6	13.4	-2.2
6	O=C(C1=NOC2(C1)C(=O)N(Cc1ccccc1)c1ccccc12)N1CCOCC1 (configuration not stated)	-0.1	-19.1	-8.4	-2.1
7	COc1cccc(CN2CC3(CN(C(C)=O)C3)c3c(n(C)c4cc(OC)ccc34)[C@H]2CO)c1	0.5	0.5	-0.1	0.0
8	Cc1noc(C)c1NC(=O)N1C[C@@H](O)COC[C@@H]2O[C@@H](CC(=O)N3CCc4ccccc4C3)CC[C@H]21	-0.5	4.3	13.1	3.5
9	O=C(O)C[C@@H]1CC[C@H](NC(=O)c2ccncc2)[C@@H](CO)O1	-3.5	3.7	2.4	-1.1
10	CCNC(=O)C[C@@H]1CC[C@@H]2[C@@H](COc3ccc(NC(=O)Nc4ccc(Cl)cc4)cc3C(=O)N2C)O1	0.3	2.0	-13.8	-0.4
11	O=C(C[C@H]1C[C@@H]2c3cc(NC(=O)C4CCC4)ccc3O[C@@H]2[C@@H](CO)O1)NCc1ccc(Cl)cc1	-0.9	-4.1	-2.8	3.9
12	CC(C)NC(=O)N(C)C[C@@H]1OCCCC[C@H](C)Oc2ccc(NC(=O)c3ccccc3)cc2C(=O)N([C@@H](C)CO)C[C@H]1C	-7.4	-0.1	-0.2	1.4
13	COc1ccc2c3c([nH]c2c1)[C@@H](CO)N(C(=O)C1CCOCC1)CC31CCN(S(C)(=O)=O)CC1	-2.6	-3.7	4.9	1.7
14	COCCNC(=O)C1CCCN(C(=O)c2ccc3ccccc3n2)CC1 (configuration not stated)	-5.8	7.1	10.5	-0.6
15	C[C@@H]1CN([C@H](C)CO)C(=O)c2cccc(NC(=O)C3CCCCC3)c2O[C@H]1CN(C)Cc1ccc2c(c1)OCO2	6.4	-3.3	-5.5	-3.8
16	CCCNC(=O)N(C)C[C@@H]1Oc2cc(C3=CCCCC3)ccc2S(=O)(=O)N([C@@H](C)CO)C[C@@H]1C	3.8	-2.7	-12.8	4.5
17	COc1ccc(CN(C)C[C@@H]2Oc3ccc(NC(=O)Cn4cnnn4)cc3CC(=O)N([C@H](C)CO)C[C@@H]2C)cc1	-0.6	3.7	0.7	-4.5
18	O=S(=O)(N[C@H]1CC[C@H](CCn2cc(-c3ccccc3F)nn2)O[C@H]1CO)c1ccc(F)cc1	-22.1	-6.7	-12.6	-6.2
19	CC(C)NC(=O)NCC[C@H]1CC[C@@H](NC(=O)CCN2CCCCC2)[C@H](CO)O1	3.5	3.2	17.4	1.0
20	CN1CCN(C(=O)C[C@H]2CC[C@H]3[C@@H](COC[C@H](O)CN3C(=O)Nc3ccc(Cl)cc3)O2)CC1	-1.3	-25.0*	-1.7*	-0.9*
21	CC(=O)N1[C@H](CO)[C@H]2c3ccccc3N(C(=O)Nc3cc(F)ccc3F)C[C@H]21	-0.2	4.4	3.1	-2.6
22	COc1ccc2c3c(n(C)c2c1)[C@@H](CO)N(Cc1ccncc1)CC31CCN(C(=O)Cc2ccncc2)CC1	-7.3	1.7	7.5	-1.5
23	C[C@@H]1CN([C@H](C)CO)C(=O)c2cc(NS(=O)(=O)c3cn(C)cn3)ccc2O[C@H]1CN(C)S(=O)(=O)c1ccc(F)cc1	-0.6	1.8	-3.6	-0.7
24	Cc1ccc(S(=O)(=O)Nc2cccc3c2O[C@H](CN(C)S(=O)(=O)c2ccccc2)[C@@H](C)CN([C@H](C)CO)C3=O)cc1	-0.8	0.9	6.1	-2.0
25	Cc1noc(C)c1S(=O)(=O)N(C)C[C@H]1OCCCC[C@H](C)Oc2ccc(NC(=O)Nc3ccc(C(F)(F)F)cc3)cc2C(=O)N([C@H](C)CO)C[C@@H]1C	0.0	-1.0	5.6	1.1

3 entries already listed, ordered by the number in Ecoli rRNA inh OD600, highest first:
no.	compound	AF4-AF9 inh	Ecoli rRNA inh	Ecoli rRNA inh OD600	Ecoli rRNA inh RFP
14	COCCNC(=O)C1CCCN(C(=O)c2ccc3ccccc3n2)CC1 (configuration not stated)	-5.8	7.1	10.5	-0.6
12	CC(C)NC(=O)N(C)C[C@@H]1OCCCC[C@H](C)Oc2ccc(NC(=O)c3ccccc3)cc2C(=O)N([C@@H](C)CO)C[C@H]1C	-7.4	-0.1	-0.2	1.4
15	C[C@@H]1CN([C@H](C)CO)C(=O)c2cccc(NC(=O)C3CCCCC3)c2O[C@H]1CN(C)Cc1ccc2c(c1)OCO2	6.4	-3.3	-5.5	-3.8

Later entries.
no.	compound	AF4-AF9 inh	Ecoli rRNA inh	Ecoli rRNA inh OD600	Ecoli rRNA inh RFP
26	O=C(c1ccc(F)cc1)N1CCCCN2[C@H](CO)[C@@H](c3ccc(/C=C/c4ccccc4)cc3)[C@H]2C1	0.9	-58.7	-69.2	-20.8
27	COc1ccccc1Cc1c(-c2ccc(F)cc2)nc2c3ccccc3ccn12	-0.2	24.6	18.6	1.8
28	Cc1ccc(NC(=O)C2c3ccccc3-c3ccccc32)cc1	-4.4	-2.0	-3.5	-1.2
29	C[C@H](CO)N1C[C@H](C)[C@@H](CN(C)C(=O)CCN2CCCCC2)Oc2ncc(C#CCN(C)C)cc2C1=O	-0.1	1.5	9.7	-2.9
30	Cc1nc(C(F)(F)F)ccc1C(=O)N1CCC1(C)C(=O)NS(=O)(=O)c1ccccc1Cl (configuration not stated)	-1.6	12.7	12.6	-0.4
31	CNC[C@H]1Oc2cc(C#Cc3ccc(F)cc3)ccc2S(=O)(=O)N([C@@H](C)CO)C[C@@H]1C	5.4	-2.6	-3.5	3.8
32	COc1cccc(NC(=O)CN2C(=O)NC3(CCCc4ccccc43)C2=O)c1 (configuration not stated)	2.5	-9.6	-9.4	-1.8
33	CC(=O)N(C)C[C@@H]1Oc2ncc(C#C[C@H](C)O)cc2C(=O)N([C@@H](C)CO)C[C@H]1C	-5.9	2.8	6.9	-4.3
34	CN(C)c1ccc(CNC(=O)CC[C@H]2O[C@@H](n3cnc4c(NC(=O)c5ccccc5)ncnc43)[C@H](O)[C@@H]2O)cc1	-3.3	18.3	14.2	2.9
35	CN(C)CCCNC(=O)C[C@H]1CC[C@@H]2[C@H](COc3ccc(NC(=O)c4ccc5c(c4)OCO5)cc3C(=O)N2C)O1	-0.2	4.0	9.7	-0.1
36	Cc1noc(C)c1S(=O)(=O)Nc1ccc2c(c1)C(=O)N([C@H](C)CO)C[C@H](C)[C@@H](CN(C)C(=O)Nc1ccccc1)OCCCC[C@@H](C)O2	3.1	1.4	0.8	-2.3
37	C[C@@H]1CCCCO[C@@H](CN(C)CC2CCCCC2)[C@@H](C)CN([C@H](C)CO)C(=O)c2cc(NC(=O)Nc3ccccc3)ccc2O1	2.6	4.6	3.7	3.2
38	Cc1cc(C(=O)Nc2cccc3c2O[C@H](CN(C)Cc2ccc(C(=O)Nc4ccccc4N)cc2)[C@@H](C)CN([C@@H](C)CO)C3=O)n(C)n1	4.1	-6.1	-3.9	-2.1
39	Cc1nc2c(OCc3ccc(C#N)cc3)cccn2c1N(C)C(=O)CCC1CCCC1	1.9	-5.5	-12.4	6.7
40	CC(C)NC(=O)N(C)C[C@@H]1Oc2ncc(C#CC3CC3)cc2C(=O)N([C@@H](C)CO)C[C@H]1C	-1.3	0.6	0.4	-3.9
41	COc1cccc(NC(=O)C[C@H]2CC[C@H]3[C@H](COc4ccc(NC(=O)C5CCCCC5)cc4C(=O)N3C)O2)c1	-0.5	-2.6	-6.4	-1.2
42	O=C(C[C@@H]1CC[C@H]2[C@@H](COC[C@@H](O)CN2C(=O)c2ccncc2)O1)NC1Cc2ccccc2C1	-0.9	0.4	3.1	-4.0
43	Cc1cc(C(=O)Nc2cccc3c2O[C@H](CN(C)C(=O)NC2CCCCC2)[C@@H](C)CN([C@H](C)CO)C3=O)n(C)n1	-11.0	4.0	3.7	-0.8
44	C[C@H](CO)N1C[C@H](C)[C@@H](CN(C)Cc2ccc(C(F)(F)F)cc2)OCCCC[C@H](C)Oc2ccc(NS(=O)(=O)c3ccc(Cl)cc3)cc2C1=O	-0.8	1.0	10.2	6.9
45	CC(C)CC#Cc1cnc2c(c1)C(=O)N([C@@H](C)CO)C[C@@H](C)[C@H](CN(C)S(=O)(=O)c1ccccc1)O2	-0.2	4.2	-12.9	7.3
46	O=C(C1CCCC1)N1CC(=O)N2[C@@H](CO)[C@H](c3ccc(-c4cccnc4)cc3)[C@@H]2C1	-3.1	2.0	25.6	-5.0
47	CCCCN(C=O)c1c(CC)nc2c(OCc3ccc(Cl)cc3Cl)cccn12	0.7	-23.1	-61.8	12.9
48	CC(C)NC(=O)N(C)C[C@H]1OCCCC[C@H](C)Oc2ccc(NS(=O)(=O)c3ccccc3)cc2C(=O)N([C@@H](C)CO)C[C@H]1C	0.0	-0.8	2.8	-0.6
49	COc1ccccc1S(=O)(=O)N[C@@H]1CC[C@@H](CCNC(=O)C2CCCCC2)O[C@@H]1CO	0.0	1.3	-3.9	1.1
50	O=C1NC[C@@H](CCCCN2C[C@H](Cc3ccccc3)N(CC3CCCCC3)C(=O)C2=O)N(Cc2ccccc2)C1=O	-1.3	-31.8	-63.2	11.4
51	CC(=O)N(C)C[C@H]1Oc2ncc(C#Cc3ccccn3)cc2C(=O)N([C@@H](C)CO)C[C@H]1C	-9.2	5.7	2.8	-2.2
52	C[C@@H]1CN([C@@H](C)CO)C(=O)Cc2cc(NC(=O)CCC(F)(F)F)ccc2O[C@H]1CN(C)C(=O)Nc1ccccc1	-3.0	5.1	1.4	-1.6
53	CCCNC(=O)N1CC2(CCN(C(=O)C3CCCCC3)CC2)c2c([nH]c3cc(OC)ccc23)[C@H]1CO	-2.3	-5.9	9.9	1.7
54	COc1ccc(CNC(=O)C[C@@H]2C[C@H]3c4cc(NS(=O)(=O)c5ccc(F)cc5)ccc4O[C@H]3[C@H](CO)O2)cc1	-1.8	-0.1	-23.5	4.8
55	CCCCOc1ccc(S(=O)(=O)NC(=O)C2(C)CCN2C(=O)c2c(C)noc2C)cc1 (configuration not stated)	-3.3	-1.8	6.6	-2.1
56	CS(=O)(=O)N1[C@H](CO)[C@@H](c2ccc(C#CC3CC3)cc2)[C@@H]1C#N	-0.9	1.2	0.4	1.4
57	O=[N+]([O-])c1cc([N+](=O)[O-])c(Oc2cccc3c2CCCC3)cc1NN1CCCCC1	2.1	6.1	2.5	3.9
58	COCC(=O)N1[C@H](C#N)[C@@H](c2ccccc2-c2ccc(C)cc2)[C@@H]1CO	0.9	-6.4	-17.5	3.8
59	C[C@H](CO)N1C[C@H](C)[C@@H](CN(C)C)Oc2ccc(NS(=O)(=O)c3ccccc3)cc2C1=O	-3.0	3.7	2.6	-0.1
60	COC(=O)C1=CN(c2ccc(F)cc2)C(N)=C(C#N)C1c1ccccc1 (configuration not stated)	2.9	-14.2	-26.4	-11.0
61	O=S(=O)(Cc1ccccc1)N1CCCCN2[C@H](CO)[C@@H](c3ccc(-c4ccccc4)cc3)[C@H]2C1	14.0	-33.4	-45.7	0.0
62	C[C@H](CO)N1C[C@H](C)[C@@H](CN(C)S(=O)(=O)c2ccc(F)cc2)Oc2c(NC(=O)Nc3ccc(F)cc3)cccc2C1=O	-1.7	-0.6	1.2	-2.1
63	CC(C)c1cn(CC[C@@H]2CC[C@H](NS(=O)(=O)c3ccc(Cl)cc3)[C@@H](CO)O2)nn1	-0.7	0.1	2.4	0.0
64	CN(C[C@H]1N[C@@H](CO)[C@@H]1c1ccccc1)C(=O)c1ccccn1	-2.7	2.4	12.3	-0.6
65	O=c1ccn([C@@H]2O[C@H](CNCc3cccc4c3sc3ccccc34)[C@@H](O)[C@H]2O)c(=O)[nH]1	2.1	-28.9	-53.5	19.4
66	O=S1(=O)CC(N2CCC(Cc3ccccc3)CC2)CN1Cc1ccccc1 (configuration not stated)	0.6	-24.1	-62.8	2.1
67	CN(C)C(=O)c1cccc(-c2ccc(C3[C@H]4CNC[C@@H]3N4S(=O)(=O)c3ccc(Cl)cc3)cc2)c1 (some centres not stated)	-0.5&-1.2	-2.4&-10.3	2.1&-16.1	4.1&10.6
68	CN1[C@@H]2Cn3c(ccc(-c4ccccc4)c3=O)[C@H]1[C@@H](C(=O)NCCc1ccccc1)[C@@H]2CO	-0.3	0.0	3.7	0.5

3 structures out of the list, sorted by formula weight, high to low.
no.	compound	AF4-AF9 inh	Ecoli rRNA inh	Ecoli rRNA inh OD600	Ecoli rRNA inh RFP
68	CN1[C@@H]2Cn3c(ccc(-c4ccccc4)c3=O)[C@H]1[C@@H](C(=O)NCCc1ccccc1)[C@@H]2CO	-0.3	0.0	3.7	0.5
51	CC(=O)N(C)C[C@H]1Oc2ncc(C#Cc3ccccn3)cc2C(=O)N([C@@H](C)CO)C[C@H]1C	-9.2	5.7	2.8	-2.2
60	COC(=O)C1=CN(c2ccc(F)cc2)C(N)=C(C#N)C1c1ccccc1 (configuration not stated)	2.9	-14.2	-26.4	-11.0
